UCH37 inh: human UCH37 deubiquitinating enzyme inhibition. Q9Y5K5. hit rate 0.33% among 330,000. purified proteasome/UCH37, Ub-AMC cleavage fluorescence. inhibition, % (concentration not given with the values);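 active means mean of two replicates above 20%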;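 further: 0% = compound-free wells with enzyme and 100% = wells lacking proteasome; stock transfer was 100 nL into about 20 µL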
Target sequence (Q9Y5K5 whole entry, looked up): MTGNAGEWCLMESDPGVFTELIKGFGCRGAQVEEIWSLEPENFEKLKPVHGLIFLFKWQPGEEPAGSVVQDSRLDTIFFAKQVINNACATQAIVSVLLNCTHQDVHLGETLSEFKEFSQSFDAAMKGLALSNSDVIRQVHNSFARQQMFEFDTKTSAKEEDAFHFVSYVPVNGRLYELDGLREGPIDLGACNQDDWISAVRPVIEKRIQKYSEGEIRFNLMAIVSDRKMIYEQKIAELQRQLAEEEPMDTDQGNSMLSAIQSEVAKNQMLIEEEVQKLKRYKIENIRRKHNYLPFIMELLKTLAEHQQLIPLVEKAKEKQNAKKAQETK
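System: Proteasome-associated human UCH37 deubiquitinase; Input: 0.15 nM proteasome in added enzyme buffer; Also added: Ub-AMC substrate from 1 µM stock; Incubation: 30 min compound-proteasome preincubation then 25 min substrate reaction, room temperature; Detection: fluorescence, ex 355 nm, em 460 nm; Read-out: % inhibition of Ub-AMC cleavage fluorescence; Benchmarks: no-proteasome and no-compound wells.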
HNF4A DNA FP: change in binding of human HNF4 alpha to DNA | HNF4a-FITC DNA binding, fluorescence polarization, 1 h | P41235 | hit rate 0.3% among 360,000 | AID 1224865 | activity change, % at 10 µM; in the data active means activity change above about 30%, passing the limit was not always enough;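 further: controls were the assay level and a saturating level of protein; the project sought stronger binding though the title names inhibitors; some compounds called inactive have numbers as strong as hits; positive values seem to mean higher polarization but the record does not say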
Target sequence (P41235 whole entry, looked up): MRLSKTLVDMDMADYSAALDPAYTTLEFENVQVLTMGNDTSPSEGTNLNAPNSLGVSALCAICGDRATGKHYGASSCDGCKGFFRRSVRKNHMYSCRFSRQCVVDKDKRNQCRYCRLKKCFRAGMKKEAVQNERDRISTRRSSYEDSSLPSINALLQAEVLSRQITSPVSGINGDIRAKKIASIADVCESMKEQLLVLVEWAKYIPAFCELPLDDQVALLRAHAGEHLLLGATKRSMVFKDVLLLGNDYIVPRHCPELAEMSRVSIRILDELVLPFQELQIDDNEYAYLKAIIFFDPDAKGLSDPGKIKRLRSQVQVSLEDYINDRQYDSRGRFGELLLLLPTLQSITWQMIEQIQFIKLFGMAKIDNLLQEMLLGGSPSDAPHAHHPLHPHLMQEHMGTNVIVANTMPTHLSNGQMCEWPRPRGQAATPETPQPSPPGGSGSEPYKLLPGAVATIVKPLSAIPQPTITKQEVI
B2AR ag: activates human beta-2 adrenergic receptor causing internalization | P07550 | Am2.2-beta2AR cells, FAP receptor internalization, flow cytometry; reference of the scale not given here | response, % (no concentration beside the values) | hit rate 0.43% among 340,000;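 active means response above a set limit, near 3 SD of response in nonfluorescent compounds, cut at about 42% in these data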;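 further: stock transfer was 100 nL into about 11 µL; a reference agonist was the positive control; negative values mostly stem from fluorescent compounds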
A1 inh: inhibitors of the anti-apoptotic protein A1, read as caspase activation; MEF A1-2A-BIM cells, Caspase-Glo 3/7 luminescence, 3 h; percent of clofoctol response, vehicle zero; caspase activation, % (test concentration not listed); hit rate 0.066% among 330,000;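 active means over half of replicate activation scores above 10%, or exactly half above 10 with the replicate mean above 10; inconclusive means replicate mean below 10 yet half the replicates above 10; inactive means over half of replicates below 10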;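 further: wells of about 30 µL received 50 nL stock; many hits fall short of the cut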
LANA-H2B inh: blocks KSHV LANA binding to histone H2A/H2B; hit rate 0.6% among 320,000; cell-free LANA-H2A/H2B peptide, fluorescence polarization; inhibition, % (test concentration not listed); in the data active means inhibition mostly above about 10%, no sharp cut-off; inactive means mostly below about 6.7%;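 further: stock transfer was 7.5 nL into about 10 µL; 0% = median of vehicle wells and 100% = median of positive control wells; one replicate is shown; the record names a cut of 25% in any replicate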
E coli growth: inhibitors of Escherichia coli growth. hit rate 0.21% among 330,000. OD600, 23 h; hits give low values. AID 1053175. OD600 absorbance (test concentration not listed);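 active means OD600 absorbance below the run mean of sample wells minus 3.6 SD, in any replicate, cut at about 0.56 in these data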;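 further: stock transfer was 300 nL into about 60 µL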
Vif TR-FRET: inhibitors of Vif binding to APOBEC3G peptide, primary screen, biochemical, TR-FRET, GST-Vif 1-94, biotin-A3G peptide, dose response retest (AID 1117319); TR-FRET GST-Vif / biotin-A3G peptide binding; higher % means a stronger effect; test concentration not given here; strong numbers were not always called active; one-dose inhibition, %; IC50 in µM for titrated hits; hit rate 0.57% among 260,000;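 active means above the screen mean plus three standard deviations and confirmed in dose response; inconclusive means results disagree or hit not tested in dose response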;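 further: Vif residues 1-94 fused to GST binding biotinylated APOBEC3G peptide 110-148; 0% = full assay without inhibitor and 100% = GST in place of GST-Vif; retest series ran down from 100 µM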
Numbers without * were called inactive; ? = inconclusive; . = no result given; + = active, no number.

entry	Structure	UCH37 inh	HNF4A DNA FP	B2AR ag	A1 inh	LANA-H2B inh	E coli growth	Vif TR-FRET
1	CC1CCN(C(=O)C(=O)c2cn(CC(=O)N3CCCC3)c3ccccc23)CC1	5.0	-2.0	-2	0.6	0.6	0.73	.
2	COc1cc(C(=O)OCC(=O)N(CC(C)C)C2CCS(=O)(=O)C2)cc(OC)c1C (stereo not drawn)	4.4	-4.1	9	-0.3	0.7	0.66	2%
3	CCCSc1ccc([C@H]2N[C@@](C)(C(=O)OC)[C@H]3C(=O)N(C)C(=O)[C@@H]23)cc1	1.3	-1.1	-9	-1.9	-3.2	.	.
4	COc1cc(C(=O)Oc2cccc(C)c2)cc(OC)c1OC	1.6	2.0	-6	0.2	1.2	0.79	2%
5	Cc1ccc(NS(=O)(=O)c2cc3c4c(cccc4c2)C(=O)NC3=O)cc1C	0.2	0.6	6	0.5	-1.5	0.68	9%
6	COc1ccc(S(=O)(=O)NCC(=O)N(CC(=O)NCC2CCCO2)Cc2ccc(F)cc2)cc1 (stereo not drawn)	3.7	-0.3	11	0.7	1.9	0.68	.
7	CN(Cc1ccccc1Cl)C(=O)CCNC(=O)c1ccco1	2.5	-1.2	8	.	.	0.64	-2%
8	Cc1ccc(NC(=O)N2CCC(C(=O)Nc3ccc(C)cc3C)CC2)cc1	0.8	2.8	2	1.2	0.8	0.69	-3%
9	O=C(c1cccnc1)N1CCN(C(=O)c2ccco2)CC1	1.7	-1.7	4	-0.2	3.0	0.59	-12%
10	O=C(O)C(Cc1ccccc1)N1C(=O)c2cccc3cccc(c23)C1=O (stereo not drawn)	6.2	-1.2	3	-0.3	6.2	0.69	.
11	Cc1cc(C(=O)NCc2cc(C)n(C)n2)sc1-c1ccccc1	-4.1	18	-2	0.3	0.8	0.65	-6%
12	O=C1CC(NS(=O)(=O)c2ccccc2F)CN1c1ccc2c(c1)OCCO2 (stereo not drawn)	1.9	0.1	-3	-0.5	-0.3	0.68	-8%
13	O=C(Nc1ccon1)Nc1cc(Cl)ccc1Cl	5.0	3.6	-24	0.1	0.2	0.7	-7%
14	CC(=O)C1(C)CCC2C3C=C(C)C4=CC(=O)CCC4(C)C3CCC21C (stereo not drawn)	.	1.5	0	.	.	.	4%
15	CN(CC1CCCN(CCc2ccc(Cl)cc2)C1)C(=O)c1ccco1 (stereo not drawn)	6.0	11	9	1.6	1.9	0.69	.
16	CCOC(=O)C1(Cc2ccccc2C)CCCN(C(=O)c2ccc(COC)o2)C1 (stereo not drawn)	6.4	2.8	27	-1.0	0.6	0.74	.
17	O=C(CN1C(=O)CCC1=O)Nc1ccc2c3c(cccc13)CC2	-5.5	1.8	-3	0.5	0.9	0.76	0%
18	O=C(c1cc(COc2cccc3cnccc23)on1)N1CCC(c2ccccc2Cl)C1 (stereo not drawn)	-6.8	4.5	3	-0.4	-4.4	0.74	.
19	Fc1ccc(-c2nnc(-c3ccc(Cl)cc3)o2)cc1	0.4	1.6	8	-1.7	1.1	0.69	1%
20	CCOC(=O)C(NC(C)=O)(Nc1ccc(F)cc1)C(F)(F)F (stereo not drawn)	3.3	-3.8	10	0.2	-2.6	0.76	5%
21	Cc1ccc(OC(=O)c2sc(Cl)nc2C)cc1C	3.3	-0.6	3	-0.7	0.9	0.74	-2%
22	O=C(Nc1cccc(F)c1)c1ccccc1	6.1	1.6	2	-3.6	1.7	0.69	9%
23	CCCOCC1CC2(CC(C)(c3csc(N)n3)OC2=O)C(=O)O1 (stereo not drawn)	1.4	-3.1	-4	-1.1	-0.8	0.71	?
24	Cc1c(C(c2ccc(C(=O)O)cc2)c2c(C)n(C)n(-c3ccccc3)c2=O)c(=O)n(-c2ccccc2)n1C	2.2	2.8	-8	1.7	-12	0.67	-2%
25	CC(=O)Nc1ccccc1-c1nn[nH]n1	1.0	-4.5	3	-0.4	1.4	0.78	5%
26	Cc1ccccc1CNS(=O)(=O)c1csc(C(N)=O)c1	4.7	-1.7	15	1.2	-1.8	0.7	.
27	Brc1ccc2[nH]c3c(c2c1)CCC3	6.4	18	1	0.2	-1.5	0.68	15%
28	Cc1ccc(NC(=O)c2ccc(NCCCN3CCC(C)CC3)c([N+](=O)[O-])c2)cc1F	4.3	1.4	-4	0.0	1.5	0.72	7%
29	CC(C)(C#N)N([O-])C=C[N+](=O)C(C)(C)C#N	8.7	-1.2	-3	0.6	5.5	0.71	-7%
30	COc1cccc(NC(=O)CN(C)C(=O)c2cc(C3CC3)nn2-c2ccccc2)c1	6.0	1.9	-2	-0.7	+	0.7	-2%
31	CCCOc1ccc(C(=O)Nc2cc(S(=O)(=O)N3CCOCC3)ccc2N2CCN(CC)CC2)cc1OC	3.0	4.0	6	.	.	0.7	.
32	O=C(COC(=O)C1CCN(c2ccc(C(F)(F)F)cn2)CC1)Nc1ccc(F)cc1[N+](=O)[O-]	2.9	-5.4	2	?	1.2	0.64	7%
33	CCCCn1c(=O)c(Cc2ccccc2)c(O)c2ccccc21	-5.1	-2.9	1	-0.2	5.3	0.72	9%
34	O=C(CN(Cc1ccc(Cl)cc1)C(=O)c1csnn1)NCc1ccccc1	2.8	-1.3	-4	0.8	0.5	0.62	-5%
35	CN(C)S(=O)(=O)c1ccc(SCC(=O)Nc2cccc(S(=O)(=O)N3CCCC3)c2)nc1	3.7	2.4	6	.	.	0.7	.
36	Cc1ccc(NC(=O)CSc2nnc(N)s2)cc1S(=O)(=O)N1CCCCC1	0.8	4.6	-6	1.0	-2.5	0.72	-11%
37	CCCc1nc2ccccc2c(=O)n1CC(=O)c1ccccc1	5.4	1.2	-2	0.8	-3.6	0.75	-13%
38	Cc1nc(N2CCC(C)CC2)c2c(C)c(C(=O)Nc3ccc(C)c(F)c3)sc2n1	-1.7	-1.7	3	-0.4	-7.6	0.7	-22%
39	CCCCN(CC)C(=O)Cc1ccc(Br)cc1	0.0	0.7	-14	0.2	-1.3	0.65	-2%
40	CC(=O)Nc1ccc(NC(=O)CSc2nc(C)nc3sc(C)c(C)c23)cc1	1.2	-1.9	-20	-0.3	5.3	0.69	-5%

Shown with each value named: two of the compounds above
33: CCCCn1c(=O)c(Cc2ccccc2)c(O)c2ccccc21
  UCH37 inh: -5.1
  HNF4A DNA FP: -2.9
  B2AR ag: 1
  A1 inh: -0.2
  LANA-H2B inh: 5.3
  E coli growth: 0.72
  Vif TR-FRET: 9%
39: CCCCN(CC)C(=O)Cc1ccc(Br)cc1
  UCH37 inh: 0.0
  HNF4A DNA FP: 0.7
  B2AR ag: -14
  A1 inh: 0.2
  LANA-H2B inh: -1.3
  E coli growth: 0.65
  Vif TR-FRET: -2%

Next records follow:
entry	Structure	UCH37 inh	HNF4A DNA FP	B2AR ag	A1 inh	LANA-H2B inh	E coli growth	Vif TR-FRET
41	Cc1cc(C)cc(NC(=O)C(=O)NCC2CCCO2)c1 (stereo not drawn)	4.0	1.3	2	-1.7	-5.7	0.7	-12%
42	O=C(CCn1cnnn1)Nc1ccc(Cl)c(Cl)c1	4.5	-0.8	-4	1.5	-2.6	0.65	-6%
43	C=CCN1C(=O)NC(c2ccccc2)(C(F)(F)F)S/C1=C(\C#N)c1nnc(N2CCOCC2)n1-c1ccccc1 (stereo not drawn)	7.6	0.0	-1	0.1	1.1	.	.
44	Cc1ccc(S(=O)(=O)N2CCCCC2)cc1C(=O)c1nccn1C	-1.4	-1.5	-8	0.1	1.7	0.71	3%
45	COc1cccc(NC(=O)CSc2ccc(-c3sc(C)nc3C)nn2)c1	-0.3	3.9	10	0.7	-0.3	0.71	-37%
46	CCOC(=O)c1ccccc1Cc1nc2ccccc2c(=O)[nH]1	3.6	3.9	-3	0.7	1.9	0.69	16%
47	COc1cccc(NS(=O)(=O)c2cc3c(cc2C)NC(=O)CO3)c1	3.7	-0.4	3	0.3	3.6	0.71	.
48	Cc1ccc(S(=O)(=O)n2nc(-c3cccnc3)nc2N)cc1	4.0	1.1	-4	0.2	1.6	0.69	2%
49	COc1cc2c(cc1OC)CN(C(=O)CSc1nc(N)c(C#N)cc1C#N)CC2	-13	7.5	-2	0.1	0.1	0.75	-9%
50	COc1ccc(CNc2ccc3c(c2)CCC3)cc1Br	2.3	6.6	15	1.4	-5.6	0.7	.
51	C#CCOCCOCCOCCNc1nc(N2CCN(C(=O)C([C@@H](C)CC)n3cc(C(N)COC(=O)C(F)(F)F)nn3)CC2)nc(N2CCN(C(=O)[C@H](CCCCN)n3cc(C(N)CC(C)C)nn3)CC2)n1 (stereo partly drawn)	2.6	.	.	-0.1	-7.9	.	.
52	O=C(CCCNS(=O)(=O)c1cccc2nsnc12)NC1CCCCC1	3.0	-1.3	-6	0.1	-0.9	0.76	-5%
53	Cc1cc(C(F)(F)F)c2sc(N)nc2n1	-2.5	4.8	7	-0.6	-1.2	0.68	-3%
54	O=C(Cc1ccc([N+](=O)[O-])cc1)N/N=C/c1ccc([N+](=O)[O-])o1	.	5.6	1	-0.1	-4.0	.	-5%
55	O=C(COC(=O)c1ccccc1F)NCc1ccc2c(c1)OCO2	0.2	1.6	4	-0.6	-2.0	0.68	.
56	COCCCNC(=O)/C(C#N)=C/c1c(N2CCCCCC2)nc2ccccn2c1=O	6.2	-1.1	-8	-0.1	-7.5	0.69	6%
57	COc1ccc(OC(C)C(=O)Nc2cccc(F)c2)cc1 (stereo not drawn)	2.7	5.4	0	-0.3	-9.8	0.64	.
58	Nc1nonc1-n1nnc(C(=O)N/N=C/c2cccnc2)c1-c1ccccc1	.	-1.4	-5	-0.4	12	.	.
59	Cc1ccc(CSc2ccc(-c3cccs3)nn2)cc1	4.2	2.6	3	-0.3	.	.	.
60	CS(=O)(=O)Oc1ccc2c(c1)O/C(=C\c1cccc([N+](=O)[O-])c1)C2=O	-8.6	2.0	1	0.6	-2.7	0.68	-10%
61	CCOC(=O)N1CCN(C(=O)CSc2ccc(-c3ccc(OC)c(OC)c3)nn2)CC1	2.2	0.0	0	1.6	.	0.69	3%
62	CCOc1ccccc1NC(=O)NC(C)c1ccncc1 (stereo not drawn)	2.8	1.4	8	0.6	-4.6	0.72	?
63	Cc1ccc(S[C@@H](CCN2CC[C@H](O)CCC2=O)c2ccccc2)cc1	3.3	4.1	-1	0.5	-2.6	0.82	.
64	COc1cccc2cc(C(=O)Nc3ccccc3C(=O)N3CCOCC3)oc12	-0.8	-0.2	3	0.3	0.9	0.67	.
65	CCOC(=O)c1ccc2c(c1)n(CCCS(=O)(=O)[O-])c(/C=C/c1ccc(Cl)cc1)[n+]2CC	4.9	0.2	4	0.4	3.4	0.66	2%
66	O=C(NCc1ccc(F)cc1)c1ccc(CS(=O)Cc2ccccc2Cl)o1 (stereo not drawn)	1.4	5.1	-5	0.5	0.4	0.66	0%
67	NCCCCCCNS(=O)(=O)c1cccc2c(Cl)cccc12	0.4	-0.1	26	0.8	-0.6	0.67	.
68	COc1ccc(CNC(=O)CN(c2ccc(C(C)C)cc2)S(=O)(=O)c2c(C)noc2C)cc1	0.4	0.8	5	1.1	14*	0.74	.
69	O=[N+]([O-])c1ccccc1Nc1cccc(F)c1	3.0	1.8	-17	.	.	0.68	-6%
70	Cc1ccccc1C(=O)NC1CCN(CC(=O)Nc2c(C)cccc2C)CC1	3.2	1.2	2	1.2	0.2	0.7	-1%
71	Cc1cccc(OCC(=O)Nc2ccc(NC(=O)c3ccco3)c(C)c2)c1	0.8	1.7	-16	-0.1	0.5	0.63	-6%
72	O=S(=O)(NCc1csc(-c2cccnc2)n1)c1ccc(Cl)s1	2.2	1.1	1	0.9	4.8	0.7	-4%
73	O=C(O)c1nccnc1C(=O)Nc1ccccc1N1CCOCC1	4.2	1.4	1	0.8	1.0	0.66	4%
